gsp antagonist: qHTS for Antagonists of gsp, the Etiologic Mutation Responsible for Fibrous Dysplasia/McCune-Albright Syndrome: qHTS | gsp-mutant cells, cAMP HTRF, 30 min; control for the full effect not named in the record | Potency, µM (titrated, usually from 76.9 µM), for inactives: at the top dose activity change, negative = inhibition, actives largely listed as inhibitors | 340,000 compounds, 0.4% hits; active = falling curve of any shape with a large fitted effect; inconclusive = falling curve, mostly with a smaller effect; inactive = flat or rising curve; cell line not stated here;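 note: intracellular cAMP measured with PDE inhibitor Ro 20-1724 present during compound exposure; potency is the fitted concentration of half-maximal effect; % is set by controls: 0 for no effect and ±100 for the full control effect; nearly all actives have a fitted effect of over 65% in size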
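Cells, 2000/well, grown 16–24 h in DMEM 10% FBS with 0.5 mg/ml G418, then compounds plus […] (300 uM addition stock), 30 min at 37C. cAMP read by HTRF (cAMP-d2 and anti-cAMP antibody-K in lysis buffer) after 30 min RT.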
gsp agonist: qHTS for Agonist of gsp, the Etiologic Mutation Responsible for Fibrous Dysplasia/McCune-Albright Syndrome: qHTS. 340,000 compounds, 0.13% hits. Potency, µM (highest dose often 76.9 µM), for inactives: top-dose activation (cAMP increase), hits mostly activators. AID 624287, 2012. gsp mutant cells, cAMP HTRF, 30 min; control for the full effect not named in the record; active = well fitted activation curve with a large enough effect; inconclusive = small, poorly fitted or top-dose-only effect, or another doubt; inactive = no such curve, though single readings can be large or run the other way; cell line not stated here;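 note: phosphodiesterase inhibitor Ro 20-1724 added with compounds to block cAMP breakdown; potency is the fitted concentration of half-maximal effect; nearly all actives have a fitted effect of over 60% in size; about a fifth of the inactives were tested at one dose only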
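Cells stably selected in G418 were plated at 2000/well, grown 16-24 hr, then given compounds in DMSO with the PDE inhibitor […] (300 uM solution added) for 30 min at 37C; cAMP was read by HTRF.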
Sfp PPTase inh: qHTS Assay for Inhibitors of Bacillus subtilis Sfp phosphopantetheinyl transferase (PPTase). Potency, µM, inactives show max response, negative = inhibition, most hits filed as inhibitors. 310,000 compounds, 3.5% hits. Biochemical Sfp PPTase activity, qHTS; active = well fitted inhibition curve with a large enough effect; inconclusive = small, poorly fitted or top-dose-only effect, or another doubt; inactive = no such curve, though single readings can be large or run the other way;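 note: the enzyme is Sfp with the accession as filed and its product quenches rhodamine fluorescence; potency is the fitted concentration of half-maximal effect; 0% = enzyme reaction without inhibitor and -100% = no enzyme wells; top concentration of the series not given in the record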
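Fluorescence-quenching assay with 15 nM Sfp, 5 uM rhodamine-CoA and 12.5 uM BHQ-2-labelled ybbR peptide in pH 7.6 Hepes/MgCl2 buffer. Enzyme was pre-incubated with compound for 15 min at room temperature. Rate was taken from the 30-min fluorescence change (525/598 nm).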
TRPV1 PAM: HTS Assay for Compounds that Act as Potentiators of the Vanilloid Receptor 1 | Transient receptor potential cation channel subfamily V member 1 (Homo sapiens), Q8NER1 | 320,000 compounds, 0.02% hits | TRPV1-expressing cells, Fluo-8 calcium influx, capsaicin EC20 potentiation; host cell line not named in the record; control for the full effect not named in the record | potentiation, % at 8.33 µM; active means potentiation above 80%; inconclusive means 30% to 80%; inactive means below 30%; note: 0% is about no effect
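Cells expressing TRPV1 were dye-loaded with Fluo-8 and read kinetically: 10 s baseline, 3 min after compound (agonist portion), then 2 min after EC20 capsaicin (allosteric enhancer portion). Calcium-bound dye fluorescence at 480/520 nm.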
Menin-MLL FL inh: qHTS Assay for Inhibitors Targeting the Menin-MLL Interaction in MLL Related Leukemias: Competition With Fluorescein Labeled MLL-derived Peptide; FP activity change, % at 61.4 µM; 290,000 tested, under 10 active; Fluorescence polarization, fluorescein-MLL peptide displacement from menin; inconclusive = falling polarisation curve, or a change in total fluorescence; inactive = total fluorescence flat and polarisation flat or rising; no compound was filed as active; the % refers to the polarisation; negative = inhibition;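 note: % of control where 0% means no effect; inhibitors lower the polarisation; unlabelled MLL peptide was the positive control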
ClpP mod: qHTS Assay for Activators of ClpP | purified B. subtilis ClpP, FRET peptide cleavage, 20 min | ATP-dependent Clp protease proteolytic subunit (Bacillus subtilis (strain 168)), P80244 | Potency, µM (titrated, usually from 57.5 µM), for inactives: at the highest dose activity change, negative = active | 340,000 compounds, 1.9% hits; active = well fitted falling curve with a large enough effect; inconclusive = small, poorly fitted or top-dose-only effect; inactive = no such curve, though single readings can be large or run the other way; note: potency is the fitted concentration of half-maximal effect; the source files actives as falling curves though it sought activators and does not explain the sign; nearly all actives have a fitted effect of over 65% in size; many hits overshoot -100%
Target sequence (P80244 whole entry, looked up): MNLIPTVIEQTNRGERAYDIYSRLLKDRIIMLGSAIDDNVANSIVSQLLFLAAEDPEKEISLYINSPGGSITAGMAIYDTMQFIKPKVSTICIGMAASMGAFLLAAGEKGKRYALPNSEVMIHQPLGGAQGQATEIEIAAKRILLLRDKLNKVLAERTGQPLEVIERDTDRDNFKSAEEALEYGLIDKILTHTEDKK
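FRET quenching reversal measured ClpP activation: 10 microg/mL B. subtilis ClpP at pH 8 with the FRET-FV decapeptide, read at 430 nm after 320 nm excitation. The 20-min minus 0-min signal was scaled between DMSO/no-enzyme wells and ADEP (5.8 microM final).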
TRPML1 blocker: qHTS for Inhibitors of the Human Mucolipin Transient Receptor Potential 1 (TRPML1). TRPML1-inducible cells, Ca2+ dye fluorescence, FDSS; active compounds read low; inhibition of EC80 agonist-evoked calcium signal. activity change, negative = inhibition, % (no concentration beside the values). 390,000 compounds, 0.02% hits. AID 624415, 2012; in the data active means activity change below about -50%; inconclusive means about -30% to -50%; inactive means above about -30%;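 note: stimulus is agonist 54-4 at its EC80 concentration; % is set by controls: 0 for no effect and ±100 for the full control effect; compound concentration not given in the record; the text of the record puts the active cut at -80%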
Target sequence (Q9GZU1 whole entry, looked up): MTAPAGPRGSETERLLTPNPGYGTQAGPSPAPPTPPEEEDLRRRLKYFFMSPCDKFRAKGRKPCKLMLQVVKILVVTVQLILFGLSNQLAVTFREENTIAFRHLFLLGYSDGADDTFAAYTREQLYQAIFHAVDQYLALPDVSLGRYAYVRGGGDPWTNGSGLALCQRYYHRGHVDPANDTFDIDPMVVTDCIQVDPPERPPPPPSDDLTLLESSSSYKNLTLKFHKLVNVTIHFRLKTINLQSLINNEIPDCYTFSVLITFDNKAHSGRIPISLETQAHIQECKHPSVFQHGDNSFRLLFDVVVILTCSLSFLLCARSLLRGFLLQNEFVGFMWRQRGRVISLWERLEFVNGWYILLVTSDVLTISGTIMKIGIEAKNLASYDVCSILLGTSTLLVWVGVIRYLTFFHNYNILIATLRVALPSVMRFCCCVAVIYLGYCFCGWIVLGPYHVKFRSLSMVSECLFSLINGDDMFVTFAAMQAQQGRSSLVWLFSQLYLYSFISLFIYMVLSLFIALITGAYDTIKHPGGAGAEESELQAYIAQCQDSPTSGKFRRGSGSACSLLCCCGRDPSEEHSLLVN
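TRPML1-DL cells, Tet-induced overnight (~16 h, 37 °C) at 1,500 cells/well, were loaded with Ca8 no-wash dye plus quencher for 45-90 min at room temperature. Compounds were pinned during FDSS kinetic reading; agonist 54-4 at EC80 (4 uM final) then added.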
Starred values were filed as active, the others as inactive; ? = inconclusive; . = no result given; & = joins results of further samples; [ ] = another dose, or the depositor's remark.

SMILES	gsp antagonist	gsp agonist	Sfp PPTase inh	TRPV1 PAM	Menin-MLL FL inh	ClpP mod	TRPML1 blocker
S=c1[nH]cnc2sc(-c3ccccc3)cc12	-5%	8%[15.4 µM]	13%	28	-1.5	.	-14
CCOC(=O)C1=C(C)NC(=O)NC1c1cccc(O)c1 (stereo not given)	-5%	6%	6%	-10	6.0	-0.1%	0
CCOC(=O)Nc1ccc(S(=O)(=O)Nc2nccc(C)n2)cc1	4%	?	3%	10	5.8	-7.0%	6
CCOC(=O)CCNC(=O)N1CCC(CCC(=O)NCc2ccc(F)cc2)CC1	9%	-6%[15.4 µM]	14%	-21	-1.6	0.6%	2
O=C(COC(=O)c1cnccn1)NCc1ccc(Cl)cc1	-1%	6%	17%	-11	-2.1	.	-13
CN1C(=S)SC(N2OC3C(=O)N(c4ccccc4)C(=O)C3C2c2ccccc2)C1(C)C (stereo not given)	.	.	20%	12	2.2	.	.
O=C(Cn1cccn1)N1CCCC(N2CCN(c3cccc(C(F)(F)F)c3)CC2)C1 (stereo not given)	8%	-11%	10%	5	2.2	1.3%	-15
O=C(NCC1CCCN(Cc2cccc(C(F)(F)F)c2)C1)c1ccc(F)cc1 (stereo not given)	10%	33%	-7%	-14	0.4	-1.0%	31
CC(C)COP(=O)(CNC(=O)CN1C(=O)c2ccccc2S1(=O)=O)OCC(C)C	11%	21%	1%	2	1.0	-0.8%	3
Cc1ccc(N(C(=O)c2cccs2)C2C=CS(=O)(=O)C2)cc1 (stereo not given)	-7%	-6%	12%	?	1.5	1.8%	6
Cc1ccc(C)c(S(=O)(=O)NCCN2CCOCC2)c1	8%	18%	8%	-4	1.1	0.6%	8
COc1ccc(Nc2ccccc2C(=O)O)cc1	-5%	-13%[15.4 µM]	6%	-5	1.2	.	-18
CC(=C\C(=O)O)/C(=C\c1cccc2ccccc12)C(=O)O	-10%	-7%[15.4 µM]	9%	1	0.9	.	-1
CCOC(=O)N1CCN(C(=O)c2cccc(OC)c2O)CC1	8%	-5%	5%	0	-3.1	1.0%	-4
O=C1COc2ccc(C(=O)COC(=O)c3c(F)cccc3Cl)cc2N1	-3%	-29%	.	4	.	1.4%	1
Cc1cccc(C(=O)N2CCC(=O)N([C@H](COCc3cccc(C(F)(F)F)c3)Cc3ccccc3)CC2)c1	.	.	9%	.	2.7	1.7%	.
CCOc1ccccc1C(=O)N/N=C/c1ccoc1	7%	-21%	16%	-1	.	-2.4%	-3
Cc1ccc(C(=O)NC2CC(C)(C)NC(C)(C)C2)cc1Cl	7%	-46%[inhibitor]	-2%	4	2.3	.	0
COc1ccc(OC)c(C(c2nnnn2Cc2ccccc2)N2CCC(C(N)=O)CC2)c1 (stereo not given)	1%	-10%	-13%	2	-0.7	0.7%	-10
C[C@H](CO)N1C[C@H](C)[C@@H](CN(C)Cc2ccncc2)Oc2c(NC(=O)C3CC3)cccc2C1=O	-3%	.	.	.	.	-3.5%	-3
O=C(COc1ccc2c(-c3ccccc3)cc(=O)oc2c1)NCc1cccs1	-11%	-14%	-17%	-15	-1.2	23%	3
CC(C)Cn1c(-c2ccc(Br)o2)n[nH]c1=S	10%	4%	-19%	11	1.7	1.2%	-12
Cc1cc(C)c(/C([O-])=C(/C(=S)Nc2ccc(SC(F)F)cc2)[n+]2ccccc2)cc1C	-11%	0%	-25%	8	0.2	.	-5
CN(C)CCCN(C(=O)c1ccco1)c1nc2ccc(F)cc2s1	13%	-1%	4%	1	6.1	0.1%	1
CCC(=O)c1cc2c(C)cc(=O)oc2c(C)c1OC(C)=O	4%	12%	12%	4	4.6	641%	-8
CCN1Cc2c(/C=C/c3ccccc3)nc3ccc(OC)cc3c2N(c2cccc(Cl)c2)C1	-13%	11%	13%	9	12	-11%	16
OCCN1c2ccccc2CCc2ccccc21	3%	-56%[inhibitor]	.	.	.	-3.0%	-10
CC1(/[N+]([O-])=C/c2cccc(Cl)c2)CCCCC1=O (stereo not given)	3%	8%	-7%	-1	4.3	0.0%	36
COc1ccc(OCC(=O)C2CC2)c(C#N)c1	4%	-10%	15%	0	3.3	0.5%	-5
N/C(=N\OC(=O)Nc1ccccc1)c1ccno1	14%	2%[15.4 µM]	12%	?	2.4	.	13
CCOC(=O)/C(C#N)=C\C1=C(N2CCOCC2)CC(C)(C)OC1	-5%	13%[15.4 µM]	15%	-2	-1.0	.	8
CNC(=O)COc1ccc(C=O)cc1OC	7%	-8%[15.4 µM]	9%	26	0.1	-8.5%	-8
Cc1c(C(=O)N2CCCC2)c(S(=O)(=O)Nc2ccccc2Cl)c(C)n1C	0%	-5%	16%	1	-0.9	-0.4%	-3
O=C(C1CCCN(Cc2ccccc2[N+](=O)[O-])C1)N1CCCC1 (stereo not given)	-3%	0%[15.4 µM]	-11%	3	-13	28µM*	-7
O=[N+]([O-])c1ccc(N2CCN(S(=O)(=O)c3ccccc3)CC2)c2cccnc12	.	-2%[15.4 µM]	6%	-4	4.6	.	-8
CCOc1ccc(CCNC(=O)COC(=O)Cn2cnc3ccccc3c2=O)cc1OCC	-8%	-13%	20%	11	-1.5	.	13
COc1cccc(N2CCN(S(=O)(=O)c3ccc4c(c3)N(C(C)=O)CCO4)CC2)c1	-18%	-59%[inhibitor]	13%	5	-0.9	-2.0%	14
COc1ccc(C)cc1S(=O)(=O)N1CCCC(C(=O)N2CCN(c3ccccc3F)CC2)C1 (stereo not given)	-37%	-37%[inhibitor]	3%	9	-1.2	-0.4%	4
Cc1cc(OCC(=O)OCC(=O)NC2CCS(=O)(=O)C2)ccc1Cl (stereo not given)	.	-44%[inhibitor]	.	.	.	0.1%	2
COc1ccc(NC(=O)CSCC(=O)Nc2nnc(C)s2)cc1	3%	-1%	.	11	.	-1.6%	28
Cn1cc(S(=O)(=O)N2CCCCC2)cc1C(=O)NCc1ccc(Cl)cc1	.	.	.	-4	.	-1.3%	33
CCn1c(CCNC(=O)c2ccccc2Cl)n[nH]c1=S	-2%	-26%	6%	-4	0.3	-0.6%	-13
Cc1ccc(SCC(=O)NC(=O)NCc2ccco2)c(C)c1	-4%	18%	-22%	-3	6.5	-0.9%	21
Cc1cc(C)cc(N(CC(=O)N2CCN(Cc3ccccc3)CC2)S(=O)(=O)c2c(C)noc2C)c1	-2%	0%	-6%	.	2.1	-2.1%&-2.5%	-10
CCOC(=O)c1ccccc1NC(=O)CN1CCC(n2nnc3cc(C(F)(F)F)ccc32)CC1	-2%	3%[15.4 µM]	15%	3	-1.9	.	7
O=C(CCC(=O)Nc1ccccc1)NCCO	8%	0%	-5%	-36	6.0	-1.3%	-4
O=C(NNC(=S)NCc1ccccc1)c1ccc(Br)o1	-35%	-20%	6%	?	-1.4	1.1%	-2
Cc1c(NC(=O)c2cnc(Cl)c(Cl)c2)c(=O)n(-c2ccccc2)n1C	-7%	5%	10%	-7	-0.4	.	-7
COc1ccc(CN2CC(C(=O)NCCc3ccccc3)CC2=O)cc1 (stereo not given)	-11%	-12%	1%	4	2.1	0.7%	4
COc1cc2sc(-c3ccccc3OC)c(-c3ccc(OCCN4CCCCC4)cc3)c2cc1OC	7%	.	.	.	.	?	4
CCOC(=O)N1CCN(c2c(N3CCc4ccccc43)c(=O)c2=O)CC1	-12%	-23%	-9%	.	3.1	2.1%	37
Cc1ccc(NS(=O)(=O)c2cccc(C(=O)N(C)Cc3cccs3)c2)cc1	-12%	24%	.	12	.	-1.8%	7
CC(C)(C)C1CCC(C(=O)Nc2nccs2)CC1 (stereo not given)	6%	-29%	3%	-9	1.8	3.7%	2
CN(CC(=O)Nc1ccc(Cl)c(C(F)(F)F)c1)C(=O)C1CC(=O)N(Cc2ccco2)C1 (stereo not given)	-9%	-23%[15.4 µM]	.	4	.	.	1
O=C(c1ccco1)N1CCN(c2ncnc3c(-c4ccc(Cl)cc4)nsc23)CC1	?	?	?	3	-1.0	.	-16
CCCCC(=O)Nc1ccc(Br)cc1C(=O)O	?	18%	6%	-2	-0.3	-2.8%	-9
CCCCCCCc1nc2c(=O)n(C)c3ccccc3c2o1	14%	5%	-1%	5	-1.8	-2.7%	0
COCCNC(=O)c1ccc(CN2CCc3ccccc3C2)cc1	8%	12%[15.4 µM]	10%	7	3.1	.	13
Cc1cc2c(=O)n(C)c(SCC(=O)NCC3CCCO3)nc2s1 (stereo not given)	-6%	0%[15.4 µM]	.	.	.	.	7
COc1cccc(-n2nnnc2SCC(=O)Nc2ccc3c(c2)OCCO3)c1	11%	-21%	6%	-5	0.8	-2.2%	-12

Remaining list, next part.
SMILES	gsp antagonist	gsp agonist	Sfp PPTase inh	TRPV1 PAM	Menin-MLL FL inh	ClpP mod	TRPML1 blocker
CN(C1=NC(=O)CS1)c1ccc(O)cc1	4%	5%[15.4 µM]	7%	15	2.3	.	-5
C/C(=N\NC(=O)c1cc2ccccc2cc1O)c1ccc2c(c1)OCO2	-3%	11%	-11%	23	?	-12%	2
C[C@H](CO)N1C[C@H](C)[C@@H](CN(C)S(=O)(=O)c2cccs2)Oc2ccc(NC(=O)Nc3ccc(C(F)(F)F)cc3)cc2C1=O	-2%	.	.	.	.	1.2%	0
CCS(=O)(=O)C1=NN2C(=N)/C(=C\c3ccc(OCCOc4cccc(OC)c4)c(OC)c3)C(=O)N=C2S1	?	-4%	-29%	?	-8.9	-2.8%	-12

Screens (PubChem BioAssay)
